# Mtb MenB inh: blocks the Mycobacterium tuberculosis MenB enzyme; hit rate 0.43% among 100,000; MenB enzyme assay, absorbance read-out; some hits fall short of the stated cut; inhibition, %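 (about 12 µg/mL by stock and volumes)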;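 active = mean of two replicates above 30%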;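 note: 0% = no compound and 100% = wells with inactive enzyme; the first replicate is given; strong numbers were not always called active; inactives centre near -10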
# Target sequence (P9WNP5 whole entry, looked up): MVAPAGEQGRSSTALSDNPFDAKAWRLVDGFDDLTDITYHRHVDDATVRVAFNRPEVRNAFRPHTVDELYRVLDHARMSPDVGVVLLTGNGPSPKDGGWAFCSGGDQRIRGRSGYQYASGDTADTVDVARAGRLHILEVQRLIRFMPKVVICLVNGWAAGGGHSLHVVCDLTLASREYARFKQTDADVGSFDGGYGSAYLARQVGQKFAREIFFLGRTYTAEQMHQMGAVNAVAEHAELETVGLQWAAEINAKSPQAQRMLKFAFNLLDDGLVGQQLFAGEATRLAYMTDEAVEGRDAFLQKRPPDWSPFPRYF
# Mtb MbtI inh: inhibitors of Mycobacterium tuberculosis siderophore enzyme MbtI; hit rate 0.89% among 100,000; inhibition, %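 (about 17 µg/mL by stock and volumes)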; purified MbtI enzyme, fluorescence intensity read-out; P9WFX0;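 active = above 50% in both replicates, above 80% if mildly self-fluorescent; inactive = the rest, strongly fluorescent compounds included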;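 note: 0% = mean of negative and 100% = mean of positive controls; one replicate is shown; some compounds called inactive have numbers as strong as hits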
# Polio RdRp inh: inhibitors of poliovirus RNA polymerase binding and polymerization; P03300; poliovirus polymerase elongation, fluorescence polarization; stronger effect = lower value; % elongation, % (compound at 16.7 µg/mL); hit rate 0.66% among 150,000; AID 588519; in the data active = % elongation below about 90%; note: some results filed as inactive read as strong as hits
# Target sequence (P03300 1749-2209 limits assumed): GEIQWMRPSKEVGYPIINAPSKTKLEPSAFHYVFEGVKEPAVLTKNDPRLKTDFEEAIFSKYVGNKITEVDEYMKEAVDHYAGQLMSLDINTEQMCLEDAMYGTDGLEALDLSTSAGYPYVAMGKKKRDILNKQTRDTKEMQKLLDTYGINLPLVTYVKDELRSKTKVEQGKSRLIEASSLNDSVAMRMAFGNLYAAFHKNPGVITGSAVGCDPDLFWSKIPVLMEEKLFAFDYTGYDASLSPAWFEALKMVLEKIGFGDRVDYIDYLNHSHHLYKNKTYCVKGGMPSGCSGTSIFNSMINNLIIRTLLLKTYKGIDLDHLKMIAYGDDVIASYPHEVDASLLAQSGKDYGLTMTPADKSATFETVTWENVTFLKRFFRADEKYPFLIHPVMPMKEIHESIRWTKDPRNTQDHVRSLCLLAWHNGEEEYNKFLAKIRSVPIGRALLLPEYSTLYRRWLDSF
# Polio RdRp inh intensity: also measured in Polio RdRp inh; calls as there; % elongation; measured here: total intensity read-out; formula for this scale not given here;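 total fluorescence in place of polarization; lower means less elongation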
# Numbers without * were called inactive; i = inactive; nt = no result given.
# A first look, 3 compounds:
no.	molecule	Mtb MenB inh	Mtb MbtI inh	Polio RdRp inh	Polio RdRp inh intensity
1	CC(N)c1ccccc1OC(F)F (configuration not stated)	-40	-6	105	105
2	CCOc1ccc(S(=O)(=O)N2CCN(C(=O)CNC(=O)c3cccs3)CC2)cc1	0	-11	98	103
3	COc1ccc(S(=O)(=O)N2CCC(C(=O)Nc3ccccc3C(F)(F)F)CC2)cc1C	-34	-6	102	102

# Results, repeating the preview:
no.	molecule	Mtb MenB inh	Mtb MbtI inh	Polio RdRp inh	Polio RdRp inh intensity
1	CC(N)c1ccccc1OC(F)F (configuration not stated)	-40	-6	105	105
2	CCOc1ccc(S(=O)(=O)N2CCN(C(=O)CNC(=O)c3cccs3)CC2)cc1	0	-11	98	103
3	COc1ccc(S(=O)(=O)N2CCC(C(=O)Nc3ccccc3C(F)(F)F)CC2)cc1C	-34	-6	102	102
4	CCn1c(C)c(CCC(=O)N2CCCCCC2)c(=O)n2nc(-c3ccccc3OC)cc12	-19	86	101	102
5	COc1ccc2oc(C(=O)OCC(=O)c3ccc(F)cc3)c(C)c2c1	9	16	105	98
6	COc1cccc(CNC(=O)[C@@H](NS(=O)(=O)c2ccccc2)C(C)C)c1	-9	-8	102	106
7	CCCC(=O)Nc1c2c(nn1-c1ccccc1)CSC2	11	11	100	101
8	Cc1cc(C)nc(SCC(=O)OCc2cccc(S(=O)(=O)N3CCOCC3)c2)n1	-8	-8	105	105
9	COC(=O)c1ccc(COC(=O)c2cccnc2N)o1	0	124	140	187
10	CC1=CC(=C(C#N)C#N)C=C(C)N1c1ccc(I)cc1	16	1	103	98
11	CNC1(C#N)CCCCC1	-24	-4	100	102
12	O=C(Cn1c(C(=O)OCCO)cc2ccccc21)c1ccccc1	-22	3	101	103
13	CCOc1ccc(C(=O)NCC(=O)NCC2CCCCC2)cc1OCC	-9	-1	108	113
14	CN1C(=O)/C(=C\c2ccccc2C(F)(F)F)SC1=S	-1	-12	102	100
15	COC(=O)c1ccc(-c2nc(-c3cc(C)nc4ccccc34)no2)cc1	-5	-9	103	106
16	Cc1cccc(OC(=O)Nc2ccccc2)c1	nt	-2	103	107
17	Cc1ccn2nc(C(=O)OCc3cc(=O)oc4cc5c(cc34)CCC5)nc2n1	-10	-85	108	114
18	CN(C)c1cccc(C(=O)N2CCOCC2)c1	6	-18	100	104
19	O=C(c1cccc(COc2ccccc2Cl)c1)N1CCCCC1	-19	-7	102	107
20	CN(Cc1ccccc1)Cn1c(=S)oc2ccc(Cl)cc21	-25	49	104	105
21	Cc1ccccc1-n1nnnc1SCC(=O)N(Cc1cccs1)c1ccc2c(c1)OCCO2	-28	2	112	126
22	CCc1cccc(OCC(=O)O)c1	nt	0	101	97
23	CC(=O)OC1CC(C)N(C(=O)c2ccccc2)c2ccc(C)cc21 (configuration not stated)	-18	-17	100	99
24	N#Cc1ccc(NC(=O)Cc2ccc3c(c2)OCCO3)cc1	-14	5	106	107
25	COc1ccc(NCN2C(=O)c3ccccc3C2=O)cc1	9	0	101	105
26	Cc1ccc(NC(=O)/C(C#N)=C/c2ccc[nH]2)c(C)c1	13	-5	100	102
27	OCCCCNC1CCCCC1	13	-21	102	102
28	O=C(Nc1cccc(-c2nc3ccccc3[nH]2)c1)c1cccc(NC(=O)c2ccco2)c1	-13	88	102	101
29	CCOC(=O)C1=C(C)NC(=O)NC1C (configuration not stated)	-14	-2	106	114
30	NC(Cc1ccccc1)c1ccc2c(c1)OCCO2 (configuration not stated)	-7	nt	108	110

# Five entries from above, in transposed form:
[16] Cc1cccc(OC(=O)Nc2ccccc2)c1
[17] Cc1ccn2nc(C(=O)OCc3cc(=O)oc4cc5c(cc34)CCC5)nc2n1
[18] CN(C)c1cccc(C(=O)N2CCOCC2)c1
[19] O=C(c1cccc(COc2ccccc2Cl)c1)N1CCCCC1
[20] CN(Cc1ccccc1)Cn1c(=S)oc2ccc(Cl)cc21

Compound	16	17	18	19	20
Mtb MenB inh	nt	-10	6	-19	-25
Mtb MbtI inh	-2	-85	-18	-7	49
Polio RdRp inh	103	108	100	102	104
Polio RdRp inh intensity	107	114	104	107	105

# Following part:
no.	molecule	Mtb MenB inh	Mtb MbtI inh	Polio RdRp inh	Polio RdRp inh intensity
31	COc1cc(C=C(C#N)C#N)ccc1O	i	59*	98	100
32	CCOC(=O)c1[nH]c2ccc(OC)cc2c1C(SCC(=O)O)c1ccc(C(F)(F)F)cc1 (configuration not stated)	-9	-191	104	109
33	CN(Cc1cccnc1)C(=O)CNS(=O)(=O)c1cccc(C(F)(F)F)c1	-25	2	110	126
34	O=S(=O)(Nc1ccc(-c2nc3cccnc3s2)cc1)c1ccccc1	-52	101	101	102
35	CC1CC(C)CN(C(=O)c2ccc3c(c2)N(Cc2ccc(F)cc2)C(=O)c2ccccc2S3=O)C1 (configuration not stated)	7	0	99	96
36	O=S(=O)(c1ccccc1)c1nc(-c2ccco2)oc1N1CCCCC1	-13	nt	104	111
37	CC1CCCN(C(=O)COC(=O)c2ccc(N(C)C)cc2)C1 (configuration not stated)	7	5	104	99
38	CC1(C)CC(=O)C(C(=S)Nc2ccccc2)C(=O)C1	-2	-39	102	99
39	Cc1ccc(NC(=O)CC2S/C(=N\N=C\c3cccc(O)c3)NC2=O)cc1Cl (configuration not stated)	-22	8	99	101
40	COc1cccc2sc(Nc3ccc(F)cc3)nc12	-39	5	101	104
41	Cc1ccc(CSc2ncnc3c2nnn3Cc2ccccc2)cc1	-11	6	99	101
42	COc1ccc(O)c(C=NCC(C)N=Cc2cc(OC)ccc2O)c1 (configuration not stated)	-26	-1	102	103
43	O=C1Cc2ccccc2C(=O)N1c1ccccc1	nt	-3	98	91
44	CN1CCN(S(=O)(=O)c2cccc(C(=O)C(C#N)c3ccccn3)c2)CC1 (configuration not stated)	-77	2	98	102
45	CC(=O)N(C)Cc1nc2ccccc2n1Cc1ccccc1	-16	-8	102	101
46	NC(=Nc1ccc(Br)cc1)c1ccccc1	-15	-13	99	99
47	Cc1ccc(S(=O)(=O)NC2(C(=O)O)CCCCC2)cc1	-5	8	103	103
48	Cc1sc2nc(C(C)Sc3nnc(-c4ccc5c(c4)OCO5)o3)[nH]c(=O)c2c1C (configuration not stated)	1	2	110	112
49	O=C(Nc1ccccc1)NC1CC2CCC(C1)N2Cc1nnnn1Cc1ccc2c(c1)OCO2 (configuration not stated)	-65	7	100	103
50	C=CCN(C(=O)c1ccc2c(c1)nnn2C)c1ccccc1	-49	-6	102	105
51	O=C(CC(=O)NCc1ccccc1)NCc1ccccc1	4	5	97	97
52	CC1CCc2cc(F)ccc2N1S(=O)(=O)c1ccc(NC(=O)COCC(=O)O)cc1 (configuration not stated)	3	2	101	100
53	N#CCSc1ccccc1NC(=O)CN1CCc2sccc2C1c1cccs1 (configuration not stated)	-21	-4	49	241
54	CN(C)CCn1cc(C(=O)c2cc(F)ccc2O)cc1-c1nc2ccccc2c(=O)[nH]1	-18	9	109	114
55	COC(=O)c1ccccc1S(=O)(=O)/C(C#N)=C/Nc1nc(C)cc(C)n1	-35	1	102	109
56	C/C=C/c1c(F)c(F)c(Oc2ccccc2N)c(F)c1F	-18	-6	101	110
57	OC1CCC(C2CC3CCC2C3)CC1O (configuration not stated)	12	-7	95	105
58	Cn1cnc(-n2oo2)c1C#N	-13	2	103	98
59	CN(C)C(CN)Cc1ccccc1 (configuration not stated)	6	-30	104	106
60	CCOC(=O)c1c(C)sc2c1Nc1cc(Cl)ccc1S2	-18	3	104	101

# Single records, from the list above:
# COc1cc(C=C(C#N)C#N)ccc1O in the list: Mtb MenB inh = i; Mtb MbtI inh = 59*; Polio RdRp inh = 98; Polio RdRp inh intensity = 100
# CC1CCc2cc(F)ccc2N1S(=O)(=O)c1ccc(NC(=O)COCC(=O)O)cc1 (configuration not stated) in the list: Mtb MenB inh = 3; Mtb MbtI inh = 2; Polio RdRp inh = 101; Polio RdRp inh intensity = 100

# Next compounds.
no.	molecule	Mtb MenB inh	Mtb MbtI inh	Polio RdRp inh	Polio RdRp inh intensity
61	Oc1ccc(C2(c3ccc(O)cc3)CCCC2)cc1	nt	-14	98	98
62	Cc1cc(N)n(-c2ccccc2C(=O)O)n1	-12	-11	101	122
63	CC(C)CCSc1nc2ccccc2n1CN1CCN(S(=O)(=O)c2ccc(Cl)cc2)CC1	-8	3	102	106
64	CCC(=O)NC(Nc1sc2c(c1C(=O)OC)CCC2)(C(F)(F)F)C(F)(F)F	-21	nt	105	110
65	CCN1CCN(c2ccc(NC(=O)/C=C/c3ccccc3)cc2)CC1	7	nt	103	99
66	O=C(Cn1cnc2onc(-c3ccc(F)cc3)c2c1=O)N1CCN(Cc2ccc3c(c2)OCO3)CC1	-5	-16	104	103
67	COc1cccc(NC(=O)Cn2ncc3c4ccccc4n(C)c3c2=O)c1	-9	-11	104	103
68	COc1cc(CC(=O)N=c2sc3ccccc3n2C)cc(OC)c1OC	-24	18	102	107
69	COc1cc(CN(C)Cc2cc3c(cc2O)OCO3)ccc1OC(F)F	6	6	103	106
70	Cc1nc2ccccc2n1CCOc1ccccc1	-11	-2	104	102
71	CCC(=O)N(Cc1nc2ccccc2c(=O)[nH]1)Cc1ccccc1OC	-47	0	106	99
72	CCc1ccc(NS(=O)(=O)c2cc3[nH]c(=O)c(=O)[nH]c3cc2C)cc1	-7	-155	99	101
73	CCOC(=O)c1cc2c(=O)n3ccccc3nc2n(CC(C)C)c1=NC(C)=O	-7	10	99	102
74	CC(C)OC(=O)CN1CCN(C2CCCCC2)CC1	10	-2	100	100
75	COC(=O)c1n[nH]nc1C(=O)OC	-7	-15	100	101
76	O=C(CSc1nnc(-c2ccco2)n1Cc1ccccc1)OCC(=O)c1c[nH]c2ccccc12	-15	10	114	113
77	CCOC(=O)Cn1nc(C)c(NC(=O)c2ccc(OC)cc2)c1C	10	-4	99	103
78	O=C(CNC(=O)c1ccc(Br)cc1)NC1=NCCS1	8	0	100	103
79	CCc1nc2c(sc3nc(C)cc(C)c32)c(=O)o1	0	1	102	102
80	CN(C)S(=O)(=O)N(CC(=O)Nc1ccccc1C(=O)N1CCOCC1)c1ccccc1	1	-4	103	100
81	CSc1nc(-c2ccccc2)c(C#N)c(N2CCCCC2)n1	-7	-9	100	100
82	O=c1[nH]c2ccc(Nc3nc(CN4CCOCC4)nc4scc(-c5cccs5)c34)cc2[nH]1	4	78	102	102
83	Cc1cc(C)n(CNc2c(C)n(C)n(-c3ccccc3)c2=O)n1	-44	nt	101	106
84	Nc1nc2ncc3c(n2n1)CCc1ccccc1-3	-78	89	103	102
85	CC(C)C(NC(=O)c1ccc(CN2CCN(c3ccccc3)CC2)cc1)C(C)C	-13	15	99	95
86	Cn1nc(-c2ccccc2F)c2cc(C(=O)N3CCc4ccccc4C3)sc21	-6	-1	99	96
87	C/C=C(\C)CN(C)CCc1ccccn1	2	-7	101	102
88	COc1ccc(NC(=O)c2c(C)nn(-c3ccc(F)cc3)c2-n2cccc2)c(OC)c1	-4	8	100	98
89	CC(=O)Nc1ccc(NC(=O)C(Cc2ccccc2)NS(=O)(=O)c2ccc3c(c2)CCC(=O)N3)cc1 (configuration not stated)	6	-3	100	104
90	COc1ccc(C2CC(C)=NN2C=O)cc1OC (configuration not stated)	-28	6	102	102

# Next part, starting with the last five of the part before.
no.	molecule	Mtb MenB inh	Mtb MbtI inh	Polio RdRp inh	Polio RdRp inh intensity
86	Cn1nc(-c2ccccc2F)c2cc(C(=O)N3CCc4ccccc4C3)sc21	-6	-1	99	96
87	C/C=C(\C)CN(C)CCc1ccccn1	2	-7	101	102
88	COc1ccc(NC(=O)c2c(C)nn(-c3ccc(F)cc3)c2-n2cccc2)c(OC)c1	-4	8	100	98
89	CC(=O)Nc1ccc(NC(=O)C(Cc2ccccc2)NS(=O)(=O)c2ccc3c(c2)CCC(=O)N3)cc1 (configuration not stated)	6	-3	100	104
90	COc1ccc(C2CC(C)=NN2C=O)cc1OC (configuration not stated)	-28	6	102	102
91	Nc1ccccc1C(=O)NCC1CCCO1 (configuration not stated)	9	106	102	96
92	CCOC(=O)c1oc2ccccc2c1N	nt	97	101	96
93	O=C(NCCNc1ncc(C(F)(F)F)cc1Cl)C(F)(F)Sc1ccccc1	-16	-8	107	108
94	CCOC(=O)CSc1n[nH]c(=S)s1	-21	90*	101	107
95	O=C(Nc1ccc(S(=O)(=O)NC2=NCCCCC2)cc1)C1COc2ccccc2O1 (configuration not stated)	0	-15	108	108
96	Cc1cccc(C(C)C)c1NC(=O)COC(=O)c1ccccc1N	nt	-94	104	108
97	Cc1ccc(S(=O)(=O)NN2C(=O)c3ccccc3NC2(C)C)cc1	-3	116	101	99
98	COc1ccc(Cl)cc1S(=O)(=O)N1CCCC1	16	4	100	103
99	Cc1n[nH]c(C)c1S(=O)(=O)Nc1ccccc1C(=O)Nc1ccc2c(c1)OCO2	-1	78	97	108
100	CCCn1c(NC(=O)CN2C(=O)C3C4C=CC(C4)C3C2=O)nc2ccccc21 (configuration not stated)	-7	9	100	110
101	Nc1ccc(-c2ccc(C(=O)O)s2)cn1	0	105	100	101
102	CCCCOc1ccccc1N1C(=O)CC(N2CCN(C(=O)OCC)CC2)C1=O (configuration not stated)	2	5	nt	nt
